HCMV NEC inh = cytomegalovirus nuclear egress complex inhibition; HTRF UL50-UL53 interaction, normalized percent inhibition; inhibition, % (concentration not given with the values); 0.15% of 190,000 active; AID 1918969;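 active = both replicates at 50% or more, plus weaker picks with an unusually low signal ratio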;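 note: stock transfer was 100 nL into about 20 µL; 0% = negative control wells and 100% = wells with untagged competitor protein; inactives centre near -12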
Sa growth 42C = blocks Staphylococcus aureus growth. S. aureus RN4220 growth, OD600, 20 h, 42 °C; stronger effect = lower value. relative growth, % (concentration not given with the values). 0.53% of 170,000 active. AID 720641;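 active = growth at 42 °C up to 50% and 20 or more points under that at 30 °C, or under 10% at both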;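 note: 300 nL library stock went into each well; scaled to the means of positive and negative controls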
GIV Gai3 FP = GIV-Galpha-i interaction inhibition; 0.42% of 210,000 active; Galpha-i3/FITC-GIV peptide fluorescence polarization, 90 min; stronger effect = lower value; scaled: aluminum fluoride 0%, vehicle 100%; P08753; percent of control (FP), % (concentration not given with the values);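 active = replicate mean at 85% of control or lower, very high polarization wells dropped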;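 note: wells of about 15 µL received 100 nL stock; the first replicate is given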
Target sequence (P08753 whole entry, looked up): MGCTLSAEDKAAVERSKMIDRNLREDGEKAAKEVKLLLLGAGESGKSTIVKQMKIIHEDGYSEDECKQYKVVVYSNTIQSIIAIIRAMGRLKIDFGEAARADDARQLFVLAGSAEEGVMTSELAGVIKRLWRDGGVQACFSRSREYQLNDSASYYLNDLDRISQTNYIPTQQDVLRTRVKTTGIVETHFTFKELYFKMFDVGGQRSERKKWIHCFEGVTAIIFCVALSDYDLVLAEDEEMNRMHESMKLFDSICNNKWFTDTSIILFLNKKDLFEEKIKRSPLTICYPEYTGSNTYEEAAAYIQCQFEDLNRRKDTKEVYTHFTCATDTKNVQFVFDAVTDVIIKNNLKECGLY
Sa growth 42C second temp = second read-out of Sa growth 42C, no call of its own (marks repeat the call); relative growth, %; measured here: growth at 30 °C;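 optical density after 20 h as mean of two plates; 100% = untreated growth and lower means inhibition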
An asterisk follows results filed as active; nt = no result given; & = joins results of further samples. Compounds were not picked by outcome; 0.8% or so of the library scored in one or more.

smiles	HCMV NEC inh	Sa growth 42C	Sa growth 42C second temp	GIV Gai3 FP
COc1cccc(N2C(=O)c3cc4ccccc4n3CC2(C)C(=O)NC2CCCCC2)c1 (stereo unspecified)	-16	nt	nt	99
CCOc1ccc(N(CC(=O)NCCSc2ccccn2)S(=O)(=O)c2ccc(Cl)cc2)cc1	-11	nt	nt	97
CCCC12CN3CC(C)(CN(C1)C3c1ccccc1Cl)C2=O (stereo unspecified)	-8	103	105	106
O=C1C(Nc2ccccc2)=CC(c2ccc(Br)cc2)N1c1ccccc1 (stereo unspecified)	-24	93	84	107
CNCC[C@@H](Oc1ccccc1C)c1ccccc1	0	80	66	nt
CCCCS(=O)(=O)NNc1cc(C(F)(F)F)ccc1Cl	-2	80	78	nt
COc1cc2ccc(=O)oc2c(O)c1OCC=C(C)C	-62	67	72	nt
O=C1c2cccc3cccc(c23)C(=O)N1CC1CCN(S(=O)(=O)/C=C/c2ccccc2)CC1	-29	nt	nt	106
O=C(O)c1ccc(CNc2ccccc2)cc1	-10	101	97	102
CC1(C)C=Cc2c(nc3ccccc3c2N)C1	-90	104	94	105
COc1ccc(NC(=O)CSc2nnc(-c3ccc(OC)cc3)s2)cc1	nt	98	79	104
O=C(Nc1ccc(S(=O)(=O)C(F)F)cc1)c1ccccc1	8	87	95	nt
CCn1c(C(=O)NC2CCC(C)CC2)cc2sccc21 (stereo unspecified)	nt	95	91	101
Cn1cc(Br)c(N2C(=O)C=CC2=O)n1	-18	88	78	98
O=C(COc1ncnc2c(Cl)cc(Cl)cc12)c1ccc[nH]1	-35	81	93	nt
COc1ccc(/C=C2\SC(=Nc3ccc(N4CCOCC4)cc3)N(C)C2=O)cc1	-17	108	90	nt
CC1Oc2ccccc2C=C1/C=C/C(=O)O (stereo unspecified)	nt	125	89	96
CCOC(=O)/C(C#N)=C\C1=C(N2CCCC2)CC(C)(C)OC1	-54	99	87	96
CCc1ccc2c(c1)S(=O)(=O)C(C(F)(F)F)CO2 (stereo unspecified)	10	98	86	nt
COc1ccc(-c2csc3ncnc(N4CCC5(CC4)OCCO5)c23)cc1	-27	99	88	109
Cc1cc(C)cc(N2C(=S)N(c3ccccc3)C3CS(=O)(=O)CC32)c1 (stereo unspecified)	3	95	105	101
CC(=O)N/C(=C\c1ccccc1)C(=O)Nc1cccc(C#N)c1	nt	115	79	109
CCCc1ccc(-c2cc(N)n[nH]2)cc1	-14	92	52	nt
O=C(/C=C/c1ccc(F)c(Cl)c1)N1CCN(C(=O)C2CCCO2)CC1 (stereo unspecified)	-45	78	78	nt

Full records from above:
`COc1ccc(/C=C2\SC(=Nc3ccc(N4CCOCC4)cc3)N(C)C2=O)cc1` is listed with HCMV NEC inh: -17; Sa growth 42C: 108; Sa growth 42C second temp: 90; GIV Gai3 FP: nt
`Cn1cc(Br)c(N2C(=O)C=CC2=O)n1` is listed with HCMV NEC inh: -18; Sa growth 42C: 88; Sa growth 42C second temp: 78; GIV Gai3 FP: 98
`O=C(Nc1ccc(S(=O)(=O)C(F)F)cc1)c1ccccc1` is listed with HCMV NEC inh: 8; Sa growth 42C: 87; Sa growth 42C second temp: 95; GIV Gai3 FP: nt

Further structures
smiles	HCMV NEC inh	Sa growth 42C	Sa growth 42C second temp	GIV Gai3 FP
CCOCCOC(=O)c1ccc2c(c1)N(CC(=O)Nc1ccccc1C)C(=O)c1ccccc1S2	16	nt	nt	104
O=C(O)C(c1ccccc1)n1cnnn1 (stereo unspecified)	-1	102	85	101
O=C(NCc1cccc(C(F)(F)F)c1)c1ccc(S(=O)(=O)NCc2ccco2)cc1	-17	92	96	nt
CCN(CC)S(=O)(=O)c1cccc(C(=O)N2CCc3ccccc32)c1	-34	82	84	nt
Cc1ccc(NC(=O)C(C)NC(=O)OCc2ccccc2)cc1C (stereo unspecified)	-31	104	81	107
c1ccc(CCc2nn3c(COc4ccccc4)nnc3s2)cc1	nt	101	73	102
Cc1cccc(N2CCN(CCCNc3ncnc4onc(-c5ccc(Cl)cc5)c34)CC2C)c1 (stereo unspecified)	nt	88	88	101
CCc1ccc(NC(=O)c2cc3sc(Cl)cc3n2C)cc1	-3	86	101	100
CC(C)(C)c1csc(-c2ccc(/C=C(\C#N)S(C)(=O)=O)cc2)n1	-3	96	91	104
O=C(NCCc1nc2cccnc2n1C1CCCCC1)NCc1ccc(F)cc1	-19	nt	nt	115
COC(=O)c1ccccc1NC(=O)CSc1nc2ccsc2c(=O)n1Cc1ccc(C)cc1	nt	121	85	106
CCOc1ccccc1OCC(=O)NC(C)c1ccccc1 (stereo unspecified)	-1	95	99	100
Cc1ccc(-n2c(SCC(=O)c3ccccc3)nc3c([nH]c4ccccc43)c2=O)cc1	nt	104	83	99
O=C(CSc1nnc2n1CCN2c1ccccc1)c1ccc(Cl)cc1	-9	nt	nt	102
Cc1ccc(S(=O)(=O)c2nc(-c3ccccc3F)oc2N2CCCCC2)cc1	-1	113	85	107
CCC(C(=O)Nc1c(C)n(C)n(-c2ccccc2)c1=O)c1ccccc1 (stereo unspecified)	-2	76	102	nt
CCCCN(c1ccccc1)c1ncnc2c1cnn2-c1cccc(C)c1	nt	98	87	101
CC(C)(C)NC(=O)/C(C#N)=C/c1ccc(OC(F)F)cc1	-9	68	55	nt
O=S(=O)(c1ccc2c(c1)OCCO2)N1c2cccc3cccc(c23)S1(=O)=O	-4	98	89	nt
COc1ccc(CCNC(=O)CCn2c(=O)c3ccccc3n(CC(=O)Nc3cc(Cl)ccc3C)c2=O)cc1OC	-18	98	92	107
Cc1ccc(CNc2ccc(C(=O)O)cc2)cc1	nt	72	87	107
Cc1nn(-c2ccccc2)c(C)c1CCc1nn2c(Cc3ccccc3)nnc2s1	-4	nt	nt	102
Brc1ccc(C2=Nn3c(Cn4nnc5ccccc54)nnc3SC2)cc1	5	108	87	105
O=C(NC1CCCCC1)c1cccc(Nc2ccc(-c3ccccc3)nn2)c1	-1	nt	nt	103

Part of the list above, with two lines to a compound.
Each structure is followed by: HCMV NEC inh, Sa growth 42C, Sa growth 42C second temp, GIV Gai3 FP
> CCCCN(c1ccccc1)c1ncnc2c1cnn2-c1cccc(C)c1
 : nt, 98, 87, 101
> CC(C)(C)NC(=O)/C(C#N)=C/c1ccc(OC(F)F)cc1
 : -9, 68, 55, nt
> O=S(=O)(c1ccc2c(c1)OCCO2)N1c2cccc3cccc(c23)S1(=O)=O
 : -4, 98, 89, nt

Following part
smiles	HCMV NEC inh	Sa growth 42C	Sa growth 42C second temp	GIV Gai3 FP
Cc1ccc(C)c(N2CCN(S(=O)(=O)c3ccc4[nH]c5c(c4c3)CCCC5)CC2)c1	nt	93	99	103
O=c1c(O)c(-c2ccc(F)cc2)oc2cc(Cl)ccc12	6	131	103	120
O=C1c2ccccc2-c2nc3ncnn3c(-c3ccc4c(c3)OCO4)c21	-20	92	104	105
CCOC(=O)CNc1cccc(C(F)(F)F)c1	-10	93	82	nt
CCc1ccc(S(=O)(=O)c2nnn3c2nc(Nc2cc(OC)cc(OC)c2)c2cc(Cl)ccc23)cc1	-34	97	85	98
COc1ccccc1-c1cc(N)n[nH]1	-23	99	95	105
Cc1cccc(NC(=O)N2Cc3c(sc4c3CCN(C)C4)-n3cccc3C2C)c1C (stereo unspecified)	-26	nt	nt	107
O=C(O)/C=C/C(=O)N1CCN(c2ncccc2C(F)(F)F)CC1	-2	100	107	97
O=C(c1ccco1)n1nc(-c2ccc(Cl)cc2)nc1NCc1ccc(F)cc1	-18	88	85	105
O=S(=O)(c1ccc(Oc2ncnc3c2oc2ccccc23)cc1)N1CCOCC1	-40	81	86	nt
COc1ccc(Cn2nnnc2CN2CCN(C)CC2)cc1	0	112	89	105
CCCN1CCN(S(=O)(=O)c2[nH]ncc2C(=O)OCC)CC1	2	nt	nt	95
NS(=O)(=O)c1cc2c(cc1Cl)NC(C1CC3C=CC1C3)NS2(=O)=O (stereo unspecified)	-19&-10&13	94	96	104
COc1ccc(N(CC(=O)NCCc2ccc(S(N)(=O)=O)cc2)S(=O)(=O)c2c(C)noc2C)cc1	-20	nt	nt	104
O=C(Nc1nc2n(n1)C(c1ccccc1)C=C(c1ccccc1)N2)c1ccccc1 (stereo unspecified)	-1	97	88	139
CN(C)c1ccc(C(=O)c2ccccc2C(=O)O)c(O)c1	5	104	89	108
CC(=O)N(Cc1cccnc1)c1nc2c(F)cc(F)cc2s1	nt	104	88	106
CC(=O)Nc1ccc(S(=O)(=O)N2CCC(N3CCN(Cc4ccc(C)cc4)C(=O)C3=O)CC2)cc1	nt	104	61	103
CSc1cc(C(C)(C)C)[nH]n1	-13	91	87	99
COc1ccc(Br)cc1C(=O)O	-7	98	102	105
Cc1cc(C)n(CCc2nc3c4ccccc4n(CC(=O)c4ccc(Br)cc4)c(=O)n3n2)n1	2	nt	nt	109
CCOC(=O)C1=C(CN2CCC(C(=O)OCC)CC2)NC(=O)NC1c1ccccc1 (stereo unspecified)	4	103	94	110
N#Cc1c[nH]n2c(NC3CCCC3)c(-c3cccs3)nc12	nt	93	80	104
C/C(=N\NC(=O)c1cccnc1)c1ccc(Cl)s1	-62	110	85	nt
O=C1CCCN1c1ccc(C(=O)n2ccnc2)cc1	nt	85	83	101
CCn1c(=O)c(N2CCCC(C(=O)NCCc3c[nH]c4ccccc34)C2)nc2ccccc21 (stereo unspecified)	-25	nt	nt	101
CN1CCN(C(CNC(=O)C(=O)Nc2cccc(Cl)c2)c2ccc3c(c2)OCO3)CC1 (stereo unspecified)	nt	117	82	99
O=S(=O)(c1ccc(OC(F)(F)F)cc1)N1CCC(O)(c2cccc(C(F)(F)F)c2)CC1	-7	91	84	103
Cc1cc(N2CCOCC2)nc2ccc(NC(=S)NCCC(C)C)cc12	nt	92	74	101
CCOC(=O)C1=C(CC)Nc2ccccc2N=C1N=Cc1c(O)[nH]c(=O)[nH]c1=O	-26	95	93	nt
CCOC(=O)/C=C/c1ccco1	3	84	84	nt
Cc1ccc(NC(=O)C(=O)NCC(c2ccc3c(c2)OCO3)N2CCN(C)CC2)cc1C (stereo unspecified)	nt	98	96	97
CCc1ccc(NC(=O)Nc2cccs2)cc1	nt	88	80	105
Cc1nn(C(=O)C2CCCN2S(=O)(=O)c2ccccc2)c(C)c1Sc1ccccc1 (stereo unspecified)	nt	103	88	99
CCOC(=O)c1c(NC(=O)CSc2cc(C)c3ccccc3n2)sc2c1CCC2	nt	103	87	99
CC1CN(C(=O)CCC(=O)NC2CCCC(C)C2C)c2cc(Cl)ccc2O1 (stereo unspecified)	nt	136	85	108
COc1ccc(NC(=O)c2ccco2)cc1NC(=O)COc1ccccc1Cl	-20	110	94	104
CC(C)(C)OC(=O)N1CCC(CNC(=O)c2cccs2)CC1	-17	114	83	100
Cc1sc(-c2noc(C3CCC3)n2)cc1NC(=O)c1ccsc1	-6	nt	nt	111
COc1ccc(Cl)cc1NC(=O)Cn1nc(C(F)(F)F)c2c1CCCC2	-58	105	92	105
Cn1c(SCc2ccc(F)c3ccccc23)nc2ccccc2c1=O	-6	79	92	nt
O=C(CSc1ncc2c(n1)-c1cc(Cl)ccc1N(Cc1ccccc1)S2(=O)=O)NCCc1ccccc1	nt	113	98	111
COc1ccc(-c2csc3nc(-c4ccccc4)oc(=O)c23)cc1OC	-38	108	106	109
c1ccc(-c2[nH]nc(-c3ccc4c(c3)OCO4)c2-c2nc3ccccc3[nH]2)cc1	-17	97	80	nt
COc1ccc2[nH]cc(CCNC(=O)c3cn(-c4ccc(F)cc4)nn3)c2c1	-3	nt	nt	108
COC(=O)c1c(SCC(=O)Nc2cc(OC)cc(OC)c2)[nH]c2ccc(C)cc2c1=O	nt	100	103	114
CCc1nnc(NC(=O)CN2C(=O)/C(=C/c3ccc(OC)c(OC)c3)SC2=S)s1	-18	nt	nt	104
CN(C)C(=S)Cc1ccc(Cl)cc1	-31	91	89	106
CNS(=O)(=O)Cc1ccccc1CN	-13	113	93	nt
CCCSc1nnc(-c2c[nH]c3ccccc23)n1CC	nt	79	88	110

Structures listed so far containing a COOH group:
smiles	HCMV NEC inh	Sa growth 42C	Sa growth 42C second temp	GIV Gai3 FP
O=C(O)c1ccc(CNc2ccccc2)cc1	-10	101	97	102
CC1Oc2ccccc2C=C1/C=C/C(=O)O (stereo unspecified)	nt	125	89	96
O=C(O)C(c1ccccc1)n1cnnn1 (stereo unspecified)	-1	102	85	101
Cc1ccc(CNc2ccc(C(=O)O)cc2)cc1	nt	72	87	107
O=C(O)/C=C/C(=O)N1CCN(c2ncccc2C(F)(F)F)CC1	-2	100	107	97
CN(C)c1ccc(C(=O)c2ccccc2C(=O)O)c(O)c1	5	104	89	108
COc1ccc(Br)cc1C(=O)O	-7	98	102	105
